Vif TR-FRET – inhibitors of Vif binding to APOBEC3G peptide, primary screen, biochemical, TR-FRET, GST-Vif 1-94, biotin-A3G peptide, dose response retest (AID 1117319). Virion infectivity factor (Human immunodeficiency virus type 1 group M subtype B (isolate …. TR-FRET GST-Vif / biotin-A3G peptide binding; higher % means a stronger effect; test concentration not given here; strong numbers were not always called active. one-dose inhibition, %; IC50 in µM for titrated hits. 260,000 tested, 0.57% active;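 active means above the screen mean plus three standard deviations and confirmed in dose response; inconclusive means results disagree or hit not tested in dose response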;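 further: Vif residues 1-94 fused to GST binding biotinylated APOBEC3G peptide 110-148; 0% = full assay without inhibitor and 100% = GST in place of GST-Vif; retest series ran down from 100 µM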
AF4-AF9 inh – inhibitors of AF4 peptide binding to AF9, primary screen, biochemical, AlphaScreen, biotin-AF4 peptide, FLAG-AF9, single point | Protein AF-9 (Homo sapiens), P42568 | inhibition, % at 10 µM | 350,000 tested, 0.47% active | AID 651704, 2012;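 active means every replicate reaching a set inhibition limit, whatever the replicate mean, cut at about 25% in these data; inconclusive means mean inhibition reaches that limit but some replicates miss it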;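 further: 0% = plate neutral control median and 100% = total signal loss; the record names both 10 and 1 µM as test concentration; the first replicate is given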
Target sequence (P42568 whole entry, looked up): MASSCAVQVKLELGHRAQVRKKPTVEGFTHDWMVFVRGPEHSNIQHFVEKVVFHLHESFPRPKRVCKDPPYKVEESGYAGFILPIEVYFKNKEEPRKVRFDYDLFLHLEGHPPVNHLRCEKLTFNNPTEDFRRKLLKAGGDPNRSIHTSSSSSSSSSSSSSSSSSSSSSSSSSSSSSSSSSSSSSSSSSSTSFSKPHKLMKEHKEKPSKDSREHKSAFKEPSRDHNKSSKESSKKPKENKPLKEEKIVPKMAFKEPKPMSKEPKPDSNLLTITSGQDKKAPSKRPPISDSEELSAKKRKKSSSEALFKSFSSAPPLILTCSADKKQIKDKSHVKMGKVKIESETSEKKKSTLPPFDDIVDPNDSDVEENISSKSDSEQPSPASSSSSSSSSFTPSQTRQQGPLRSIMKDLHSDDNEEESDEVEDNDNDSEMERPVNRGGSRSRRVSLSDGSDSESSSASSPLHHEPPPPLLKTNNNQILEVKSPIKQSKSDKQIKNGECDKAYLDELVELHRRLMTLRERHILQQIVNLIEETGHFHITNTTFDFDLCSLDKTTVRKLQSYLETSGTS
Beta apoptosis – inhibitors of cytokine-induced beta cell apoptosis, primary screen, luminescence | INS-1E cytokine-induced death, ATP luminescence, 48 h; percent of positive-control rescue, neutral wells zero | protection from apoptosis, % (concentration not given with the values) | 300,000 tested, 0.8% active | AID 435005, 2010;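 active means all replicates at 75% or more, or half of them and the mean; inconclusive means half reach 75% but not the mean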;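 further: 0% = cytokine-treated negative control wells and 100% = positive control rescue; higher means more ATP so stronger rescue from cytokine killing; wells of about 40 µL received 100 nL stock; the first replicate is given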
rRNA inh HTS – reduced GFP signal of wild-type E. coli, primary screen, bacterial rRNA inhibitor project, GFP/RFP fluorescence, OD600, single point; GFP signal change (wild-type ribosome), % (concentration not given with the values); E. coli WT GFP vs humanized-ribosome RFP mutants, 24 h; hits give low values; DMSO median 0, no signal -100; 350,000 tested, 1.6% active;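 active means significant combined selectivity score with lowered wild-type GFP, culture density cut under 30%, mutant RFP and density less affected; inactive means any of these conditions unmet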; further: one replicate is shown; some compounds called inactive have numbers as strong as hits
T cruzi inh – inhibitors of intracellular T. cruzi growth, primary screen, luminescence, NIH3T3 host cells. inhibition, % (concentration not given with the values). T. cruzi beta-gal in NIH3T3, 90 h. 300,000 tested, 1.4% active;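 active means mean inhibition across valid replicates above about 55%, limit read from the data; inconclusive means mean below that limit but half or more replicates reach it; inactive means mean below it, under half of replicates reach it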;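 further: signal also drops with host cell toxicity which is not excluded here; 0% = plate median of DMSO wells and 100% = zero luminescence signal; higher percent means less beta-gal luminescence so fewer parasites; stock transfer was 50 nL into about 50 µL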
A1 inh – caspase 3/7 activation in MEF A1-2A-BIM cells, primary screen, A1 inhibitor project, cell-based, luminescence, HTS. Caspase-Glo 3/7 luminescence, 3 h; percent of clofoctol response, vehicle zero. caspase activation, % (no concentration beside the values). 330,000 tested, 0.066% active;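 active means over half of replicate activation scores above 10%, or exactly half above 10 with the replicate mean above 10; inconclusive means replicate mean below 10 yet half the replicates above 10; inactive means over half of replicates below 10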;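 further: wells of about 30 µL received 50 nL stock; many hits fall short of the cut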
RanGTP-Impb inh – inhibitors of RanGTP-importin-beta interaction, primary screen, biochemical, FRET, CFP-Ran, YFP-importin-beta, homogeneous; Ran GTPase (GTP-bound) - importin-beta complex; cell-free CFP-Ran/YFP-importin-beta FRET ratio; inhibition, % (no concentration beside the values); 300,000 tested, 1.1% active; AID 2216, 2009;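 active means most replicates above 15%; inconclusive means exactly half above 15%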;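 further: 0% = DMSO wells and 100% = Ran loaded with GDP instead of GTP; wells of about 40 µL received 100 nL stock; the first replicate is given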
Calb FLC – C. albicans growth inhibition with fluconazole, primary screen, CaCi-2 strain, Alamar Blue fluorescence; growth inhibition, % (test concentration not listed); 300,000 tested, 0.57% active; AID 1979, 2009; C. albicans CaCi-2 (fluconazole-resistant clinical isolate) + fluconazole, 48 h;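 active means most replicates above 75%; inconclusive means exactly half above 75%; inactive means most below 75%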;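 further: all wells also contain fluconazole at 8 µg/ml as a sub-toxic cotreatment; 0% = median of DMSO wells and 100% = median of geldanamycin control wells; wells of about 8 µL received 7.5 nL stock; the first replicate is given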
rRNA inh HTS OD600 – also measured in rRNA inh HTS; calls as there; OD600 change, %; measured here: OD600 growth;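 optical density of the mix in the first replicate; 0 = DMSO median and -100 = no signal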
rRNA inh HTS RFP – also measured in rRNA inh HTS; calls as there; RFP signal change, %; measured here: RFP humanized mutant strains;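 first replicate; 0 = DMSO median and -100 = no signal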
Starred values were filed as active, the others as inactive; u = inconclusive; x = not tested or not shown; & = joins results of further samples. Some of the compounds tested (hit frequency here may not be typical).

Each structure is followed by: Vif TR-FRET, AF4-AF9 inh, Beta apoptosis, rRNA inh HTS, rRNA inh HTS OD600, rRNA inh HTS RFP, T cruzi inh, A1 inh, RanGTP-Impb inh, Calb FLC
Cc1cc(/C=C2\SC(=S)NC2=O)c(C)n1C
    36µM*, 0.7, x, 4, -1, 14, 5, 0.6, 11, 18
Cc1ccc(C(=O)Nc2ccccc2Oc2ccccc2)cc1[N+](=O)[O-]
    20%, x, 1, x, x, x, 1, 0.0, -0.5, -33
COc1ccc(C2C(C#N)=C(N)Oc3cc(C)n(CCN4CCOCC4)c(=O)c32)cc1OC (stereo unspecified)
    8%, x, -1, x, x, x, -10, -0.4, 2.6, 3
Cc1ccc2c(cnn2C(=O)CCC(=O)NC2CCCC2)c1
    x, -5.6, -2, 10, 14, 1.4, -3, 0.0, 5.8, 3
NC(=O)C1(N2CCCCC2)CCN(C(=O)CSc2nc(C(F)(F)F)cc(=O)[nH]2)CC1
    0%, x, -5, x, x, x, -18, 0.2, -2.0, 17
Fc1ccc(-c2nc3c(-c4ccc(F)cc4)cnn3cc2CCN2CCOCC2)cc1
    2%, 2.7, 4, -11, -3, -3.5, 29, 1.6, -1.3, 17
CN1C(=O)Cn2c1nc1ccccc12
    -6%, x, -5, x, x, x, -4, 1.9, 0.1, -16
NC(=O)C1CCN(C(=O)c2cccc(S(=O)(=O)N3CCc4ccccc4C3)c2)CC1
    x, -1.4, x, 5, 1, -0.3, 4, -0.2, -1.8, u
Cc1cc(-c2ccccc2)n(-c2ccc(C(=O)N3CCN(c4ncccn4)CC3)cc2)n1
    -1%, x, -1, x, x, x, 8, 0.4, 2.0, -23
O=C(Cc1ccsc1)NNC(=O)c1ccccc1Cl
    10%, -1.5, 0, 14, 14, 0.3, -1, -0.1, -3.2, -2
COc1cc(CC(=O)Nc2cc(S(C)(=O)=O)ccc2Cl)cc(OC)c1OC
    -4%, -2.6, -10, 1, 8, 0.5, -5, 0.2, 2.8, -5
CN(Cc1ccccc1)CC(O)COc1ccc(CNCCCOc2cccnc2)cc1 (stereo unspecified)
    x, 8.6, -1, 8, 2, -12, 30, -0.5, -3.2, u
COC(=O)c1c(NC(=O)CN2C(=O)C(=O)N(CC(C)C)C2=O)sc2c1CCCCC2
    x, x, -6, x, x, x, -1, 0.1, 2.6, -13
COc1ccc(CCN(C)C(=O)CSc2nc3ncc(Cl)cc3[nH]2)cc1OC
    u, -0.3, -5, -4, -10, -0.4, -7, 0.7, 5.1, 7
Cc1cccc(OCC(=O)NCCNC(=O)c2cccnc2)c1
    x, -0.9, -1, -1, 0, -0.3, 16, 1.5, 1.6, 0
COc1ccc(NC(=O)CCNC(=O)Cn2ccc3ccccc3c2=O)cc1Cl
    x, 1.4, 0, x, x, x, 6, 0.1, -1.5, -8
C=CCC(=O)N1CCC(n2nccc2NC(=O)CCOc2ccccc2)CC1
    x, -3.4, -4, 0, 2, -2.9, -2, -1.3, 3.5, -10
COCc1[nH]nc2c1C(c1cc(OC)c(O)c(OC)c1)C(C#N)=C(N)O2 (stereo unspecified)
    19%, x, -1, x, x, x, 0, 0.0, 0.7, 17
CC1CCCC(NS(=O)(=O)c2ccc3c(c2)OCCO3)C1C (stereo unspecified)
    -2%, x, -3, x, x, x, 6, 1.1, 1.8, -29
COc1ccc(NC(=O)C2C3CCC(C3)C2C(=O)O)cc1OC (stereo unspecified)
    6%, x, -1, x, x, x, 7, -0.9, u, 14
OCC(O)CN1CCCC1 (stereo unspecified)
    18%, -2.7, -2, 18, 17, -1.3, -14, -0.5, 0.2, -13
CN(C)C(CNC(=O)c1cccc(C#N)c1)c1ccco1 (stereo unspecified)
    1%, 1.7, -6, 25, 7, 2.0, -9, -0.1, -2.3, 15
Fc1ccc(F)c(NC2=NCCCCC2)c1
    x, -1.0, -5, 0, -9, 0.5, -11, -0.5, 1.3, -2
Cc1ccc2c(n1)sc1c(-c3ccccc3)c(C#N)c(N)nc12
    -1%, x, 5, x, x, x, 29, -2.7, 56*, 2
c1ccc(Cn2nnnc2CN2CCN(c3ncccn3)CC2)cc1
    14%, x, -3, x, x, x, -26, 0.9, -0.5, -4
COc1ccc(NC(=O)c2ccccc2NC(=O)C2CCCO2)cc1 (stereo unspecified)
    1%, x, x, x, x, x, -2, -0.1, 1.6, 10
Cc1ccc(-c2cc(C(=O)N/N=C/c3ccc(F)cc3)n[nH]2)o1
    x, 3.5, 4, -24*, 2.1*, 7.9*, 0, 1.0, -1.2, -7
COc1ccc(Br)cc1/C=N/Nc1cccc(C(=O)O)c1
    x, -1.8, -4, -4, -3, -3.4, -15, -1.0, -1.5, 25
COc1ccc(CC(=O)OCCN(C)C)cc1
    u, x, 3, x, x, x, -13, 0.4, -3.8, -3
O=[N+]([O-])C(/C=C(/Cl)[N+](=O)[O-])=C(N1CCCCC1)N1CCCCC1
    -7%, x, -33, -21, -46, -7.8, 55*, 1.1, -2.4, -2
O=C(Cc1cccs1)N1CCN(S(=O)(=O)c2ccccc2)CC1
    11%, x, -5, x, x, x, 3, 0.2, 0.0, 3
NS(=O)(=O)c1ccc(CNC(=O)CCCSc2ccccc2)cc1
    x, 0.3, -3, -7, -9, 1.3, -17, 0.1, -0.1, 1
Cc1cc(-c2ccccc2)c2c3c(c(-c4ccccc4)n2n1)c(=O)n(C)c(=O)n3C
    -1%, x, 6, x, x, x, -8, 0.3, 4.3, 14
CC1C(=O)N2CCCc3cc(NC(=O)C(=O)NCc4cccnc4)cc1c32 (stereo unspecified)
    36%, -1.0, -2, 3, 7, -1.5, 1, -0.2, 5.6, 6
O=C(CC12CC3CC(CC(C3)C1)C2)Nc1ccccc1N1CCOCC1
    12%, -1.2, -8, -35, -46, -3.4, 8, 0.5, 1.9, -3
CN(C)S(=O)(=O)c1ccc(NC(=O)COC(=O)c2n[nH]c3ccccc23)cc1
    -6%, x, 5, x, x, x, 8, 0.4, 1.0, -12
COc1ccccc1CN1CC(C(=O)NCc2ncccc2C)CCC1=O (stereo unspecified)
    0%, 1.8, x, 20, 16, 2.8, 1, 0.3, 0.5, -2
COc1ccc2c(c1)c1ncn(CCc3ccccc3)c(=O)c1n2C
    4%, x, -9, x, x, x, 6, 0.6, -5.8, 19
COc1ccc(NC(=S)NCCN2CCC(C)CC2)cc1Cl
    -6%, -0.5, -7, 25, 16, 3.7, 12, 0.4, 0.2, -58
Cc1oc2cc3oc(=O)c(CC(=O)NCCCC(=O)O)c(C)c3cc2c1C
    0%, 0.2, -5, -2, 1, -3.8, -1, 0.3, 3.5, 0
OC(COCCOc1ccc(Br)cc1)CN1CCN(Cc2ccccc2)CC1 (stereo unspecified)
    x, x, -1, x, x, x, 46, -0.3, 3.6, -4
COc1cc2c(cc1OC)CN(C(=O)c1ccc(OC)c([N+](=O)[O-])c1)CC2
    u, -0.4, -14, -1, -2, 0.7, 4, 0.0, 0.3, 25
CSc1nc(-c2ccccc2)cn1-c1ccc(NC(C)=O)cc1
    23%, 9.9, -2, -1, -4, -3.1, 3, -1.9, 5.2, 10
COCCC1CCCCN1C(=O)c1cc(COc2ccc(C)nc2)on1 (stereo unspecified)
    5%, -1.3, x, 3, 5, 1.9, -9, -0.1, 4.3, 1
C[C@H]1CN([C@@H](C)CO)C(=O)c2cc(NS(=O)(=O)c3ccc(F)cc3)ccc2O[C@H]1CN(C)S(=O)(=O)c1cn(C)cn1
    x, 0.0, -2, 7&9, 9&-4, 0.2&-1.8, x, 2.2, x, x
O=C(O)C1CCCN1S(=O)(=O)c1ccccc1 (stereo unspecified)
    -3%, x, 3, x, x, x, -13, 0.7, u, -3
O=[N+]([O-])c1ccc(N2CCCCC2)cc1
    9%, -5.7, 1, x, x, x, -4, 0.6, -0.5, 1
Cc1cc(NC(=O)CSc2nc3c(c(-c4cccnc4)c2C#N)CCC3)no1
    -19%, x, 9, x, x, x, -2, -0.2, -0.4, 0
CCc1cc2c(C)cc(C)cc2nc1SCC(=O)Nc1cc(C)on1
    x, -7.3, 22, 2, 2, -2.0, 15, -0.7, 2.2, -1
CSCC[C@H](NS(=O)(=O)c1ccc(C)cc1)C(=O)N1CCC(C(=O)N[C@@H](Cc2ccccc2)C(=O)O)CC1
    x, -4.0, -8, x, x, x, -11, 0.7, 2.7, -4
S=c1[nH]nc(CSCCOc2ccc(Cl)cc2Cl)o1
    x, -1.4, -2, -34, -43, -10, -7, -0.6, 2.3, -4
OCCC1CN(Cc2c(F)cccc2Cl)CCN1C1CCCCC1 (stereo unspecified)
    u, -0.9, -2, 10, -2, -5.7, 3, -0.5, 4.4, 5
COc1ccc(N2CCN(C(=O)COC(=O)Cc3cccc(OC)c3)CC2)cc1
    -11%, -9.3, -1, 1, -5, -0.9, 3, 0.4, 1.4, 2
Cc1ccc(/C=N\NC(=O)Cc2noc3ccccc23)cc1
    5%, -3.4, 1, 2, 10, 1.7, -1, -0.7, 0.4, -2
O=C(Nc1cccc(Cn2cccn2)c1)c1cc2c(s1)CCCC2
    1%, x, 2, x, x, x, 29, -4.0, 4.1, -10
COCOc1ccc(/C=C2/Oc3cc(OCOC)cc(OCOC)c3C2=O)c(OCOC)c1
    x, x, 3, x, x, x, 34, 1.6, 104*, -9
CCc1ccc(NC(=O)c2ccc3nc(N)sc3c2)cc1
    29%, x, -4, x, x, x, 0, 0.3, -2.8, u

In the list so far, 2 have bromine:
Each structure is followed by: Vif TR-FRET, AF4-AF9 inh, Beta apoptosis, rRNA inh HTS, rRNA inh HTS OD600, rRNA inh HTS RFP, T cruzi inh, A1 inh, RanGTP-Impb inh, Calb FLC
COc1ccc(Br)cc1/C=N/Nc1cccc(C(=O)O)c1
    x, -1.8, -4, -4, -3, -3.4, -15, -1.0, -1.5, 25
OC(COCCOc1ccc(Br)cc1)CN1CCN(Cc2ccccc2)CC1 (stereo unspecified)
    x, x, -1, x, x, x, 46, -0.3, 3.6, -4
